Compound activity deposited in PubChem BioAssay by several laboratories.
Beta apoptosis: beta cell apoptosis inhibition | hit rate 0.8% among 300,000 | INS-1E cytokine-induced death, ATP luminescence, 48 h; percent of positive-control rescue, neutral wells zero | protection from apoptosis, % (no concentration beside the values) | AID 435005;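 active = all replicates at 75% or more, or half of them and the mean; inconclusive = half reach 75% but not the mean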;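 also: 0% = cytokine-treated negative control wells and 100% = positive control rescue; higher means more ATP so stronger rescue from cytokine killing; wells of about 40 µL received 100 nL stock; the first replicate is given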
T cruzi repl: T. cruzi replication inhibition. T. cruzi beta-gal in NIH3T3, luminescence, 90 h. inhibition, % (concentration not given with the values). hit rate 1.4% among 300,000. AID 1885;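 active = mean inhibition across valid replicates above about 55%, limit read from the data; inconclusive = mean below that limit but half or more replicates reach it; inactive = mean below it, under half of replicates reach it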;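 also: signal also drops with host cell toxicity which is not excluded here; 0% = plate median of DMSO wells and 100% = zero luminescence signal; higher percent means less beta-gal luminescence so fewer parasites; stock transfer was 50 nL into about 50 µL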
RanGTP-Impb inh: inhibitors of RanGTP-importin-beta interaction, primary screen, biochemical, FRET, CFP-Ran, YFP-importin-beta, homogeneous; cell-free CFP-Ran/YFP-importin-beta FRET ratio; hit rate 1.1% among 300,000; inhibition, % (test concentration not listed); AID 2216;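 active = most replicates above 15%; inconclusive = exactly half above 15%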;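 also: 0% = DMSO wells and 100% = Ran loaded with GDP instead of GTP; wells of about 40 µL received 100 nL stock; the first replicate is given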
Beta2AR agonist: activates human beta-2 adrenergic receptor causing internalization | P07550 | Am2.2-beta2AR cells, FAP receptor internalization, flow cytometry; reference of the scale not given here | response, % (test concentration not listed) | hit rate 0.43% among 340,000 | AID 504454;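 active = response above a set limit, near 3 SD of response in nonfluorescent compounds, cut at about 42% in these data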;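 also: stock transfer was 100 nL into about 11 µL; a reference agonist was the positive control; negative values mostly stem from fluorescent compounds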
Target sequence (P07550 whole entry, looked up): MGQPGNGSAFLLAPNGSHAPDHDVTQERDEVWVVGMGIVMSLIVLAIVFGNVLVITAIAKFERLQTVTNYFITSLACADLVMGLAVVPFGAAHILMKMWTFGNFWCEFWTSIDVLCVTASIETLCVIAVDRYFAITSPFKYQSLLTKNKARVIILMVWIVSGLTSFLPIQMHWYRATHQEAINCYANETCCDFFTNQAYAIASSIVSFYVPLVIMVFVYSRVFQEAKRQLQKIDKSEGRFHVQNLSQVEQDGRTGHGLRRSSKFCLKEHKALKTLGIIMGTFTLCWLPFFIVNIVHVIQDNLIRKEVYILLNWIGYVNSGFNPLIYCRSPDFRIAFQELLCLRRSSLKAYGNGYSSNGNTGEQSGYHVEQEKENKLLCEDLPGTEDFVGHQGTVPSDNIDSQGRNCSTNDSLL
Bfl-1 A1 inh: inhibitors of the anti-apoptotic protein A1, read as caspase activation; hit rate 0.066% among 330,000; AID 2462; MEF A1-2A-BIM cells, Caspase-Glo 3/7 luminescence, 3 h; percent of clofoctol response, vehicle zero; caspase activation, % (no concentration beside the values);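 active = over half of replicate activation scores above 10%, or exactly half above 10 with the replicate mean above 10; inconclusive = replicate mean below 10 yet half the replicates above 10; inactive = over half of replicates below 10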;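 also: wells of about 30 µL received 50 nL stock; many hits fall short of the cut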
LANA-H2B inh: blocks KSHV LANA binding to histone H2A/H2B; Q9QR71; cell-free LANA-H2A/H2B peptide, fluorescence polarization; inhibition, % (concentration not given with the values); hit rate 0.6% among 320,000; in the data active = inhibition mostly above about 10%, no sharp cut-off; inactive = mostly below about 6.7%;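 also: stock transfer was 7.5 nL into about 10 µL; 0% = median of vehicle wells and 100% = median of positive control wells; one replicate is shown; the record names a cut of 25% in any replicate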
UCH37 inh: blocks the human deubiquitinase UCH37. hit rate 0.33% among 330,000. purified proteasome/UCH37, Ub-AMC cleavage fluorescence. AID 588478. inhibition, % (test concentration not listed);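 active = mean of two replicates above 20%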;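 also: 0% = compound-free wells with enzyme and 100% = wells lacking proteasome; stock transfer was 100 nL into about 20 µL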
Target sequence (Q9Y5K5 whole entry, looked up): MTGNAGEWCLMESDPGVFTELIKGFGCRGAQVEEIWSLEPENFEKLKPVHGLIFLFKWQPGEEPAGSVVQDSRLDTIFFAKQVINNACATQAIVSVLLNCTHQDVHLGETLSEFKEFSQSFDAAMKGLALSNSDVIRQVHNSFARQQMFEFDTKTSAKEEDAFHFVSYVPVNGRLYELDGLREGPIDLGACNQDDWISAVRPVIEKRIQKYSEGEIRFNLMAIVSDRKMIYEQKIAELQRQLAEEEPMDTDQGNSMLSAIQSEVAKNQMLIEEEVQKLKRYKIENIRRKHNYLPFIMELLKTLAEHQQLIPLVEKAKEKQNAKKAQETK
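Assay system: Proteasome-bound UCH37. Buffer or medium: pH 7.4 Tris-HCl (50 mM) with ovalbumin, ATP-MgCl2, DTT. Incubation: 30 min preincubation with enzyme, 25 min cleavage at room temperature. Measured by: fluorescence, ex 355 nm, em 460 nm. Read-out basis: percent inhibition. Control set: wells without proteasome as full block, compound-free enzyme plus substrate as uninhibited.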
Calb FLC: affects C. albicans growth with fluconazole. AID 1979. hit rate 0.57% among 300,000. C. albicans CaCi-2 (fluconazole-resistant clinical isolate) + fluconazole, Alamar Blue growth, 48 h. growth inhibition, % (no concentration beside the values);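 active = most replicates above 75%; inconclusive = exactly half above 75%; inactive = most below 75%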;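 also: all wells also contain fluconazole at 8 µg/ml as a sub-toxic cotreatment; 0% = median of DMSO wells and 100% = median of geldanamycin control wells; wells of about 8 µL received 7.5 nL stock; the first replicate is given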
* hit, by the source's call; ? = inconclusive; . = no result given.

SMILES | Beta apoptosis | T cruzi repl | RanGTP-Impb inh | Beta2AR agonist | Bfl-1 A1 inh | LANA-H2B inh | UCH37 inh | Calb FLC
CCOc1ccc(C(=O)NCC(C)C)cc1 | -2 | -13 | 0.7 | 3 | -0.6 | -0.6 | 1.6 | -3
COc1ccccc1CNC(=O)CN1C(=O)NC2(CCC(C)CC2)C1=O (stereo not given) | -12 | . | . | -4 | 1.4 | 3.7 | 0.7 | .
O=C(Nc1ccc(N2CCCCC2)cc1)c1ccc(F)cc1 | 2 | -1 | -1.3 | 2 | -7.3 | 0.3 | 2.9 | -1
O=C(O)C1C2C=CC(O2)C1C(=O)Nc1cccc(C(F)(F)F)c1 (stereo not given) | 23 | 3 | 4.8 | 4 | 1.6 | -3.7 | 1.1 | 2
CC(Sc1nc(N2CCOCC2)nc(N2CCOCC2)n1)C(=O)Nc1ccccc1 (stereo not given) | 6 | -4 | 3.3 | 0 | -0.2 | 2.2 | -1.8 | -7
Cc1ccc(-c2cc3nn(-c4ccccc4)c(N)c3c(=O)o2)cc1 | 3 | 10 | 5.0 | -4 | -1.1 | 3.4 | -22 | 9
COc1ccc(NC(=O)C2C3CC/C=C\CCC32)cc1 (stereo not given) | 2 | -13 | 2.4 | 1 | 0.1 | -1.3 | 2.1 | 17
C=CCN(c1ccc(C(=O)Nc2cc(C)cc(C)c2)cc1)S(C)(=O)=O | -18 | 5 | -1.3 | 2 | 0.4 | 1.8 | 4.3 | -6
CCc1ccc(NC2Nc3cc(C)nn3S2)cc1 (stereo not given) | -6 | 1 | -3.0 | -2 | -0.2 | -0.4 | 1.6 | 16
Cc1ccc(OCc2cc(C(=O)N3CCN(c4ccccc4)CC3)no2)cc1C | -2 | 12 | -4.5 | 5 | ? | -8.5 | 2.5 | 3
NC(=O)c1c(N)sc2c1CCCC2 | -2 | -3 | -10 | -3 | -1.5 | 0.5 | -1.5 | 15
O=C1C2C3C=CC(CC3)C2C(=O)N1c1ccc2c(c1)OCO2 (stereo not given) | -4 | -24 | 5.5 | -3 | -0.5 | -1.2 | 1.3 | 33
CCNC(=S)N1CCN(C(=O)c2ccco2)CC1 | -5 | -16 | 0.2 | 3 | -0.1 | -7.5 | 4.1 | -6
CCN(CC)C(=O)c1cc([N+](=O)[O-])cc2c1-c1ccc([N+](=O)[O-])cc1C2=C(C#N)C#N | 89* | 3 | 5.4 | 37 | 0.2 | 2.7 | . | 12
CCOC(=O)[C@@H]1[C@H]2COc3ccccc3[C@H]2N2C(=O)N(c3ccc(Br)cc3)C(=O)[C@]12C | -3 | . | . | -10 | 0.6 | -4.7 | -0.1 | .
CC1(C)Cc2nc3sc4c(SCC(=O)NCc5ccco5)ncnc4c3cc2CO1 | -1 | . | 6.9 | 2 | -5.5 | -3.0 | 5.2 | -8
CN(Cc1ccon1)Cc1cn(Cc2ccccc2)nc1-c1ccc2c(c1)OCO2 | -2 | 13 | 1.8 | 38 | -0.1 | 11 | 1.3 | 2
CCOC(=O)CCSc1nc2c(c(C(F)(F)F)c1C#N)CCC2 | -1 | 12 | 4.4 | -3 | 0.0 | 2.0 | -4.9 | 11
O=C(CSc1nc2ccccc2s1)Nc1cc(S(=O)(=O)N2CCOCC2)ccc1Cl | 4 | 1 | -2.8 | -5 | 0.8 | -0.2 | 1.8 | 5
CCCN(C(=O)Cc1nc(N)n[nH]1)C1(C(=O)Nc2c(C)cccc2C)CCCCC1 | -1 | -4 | 0.8 | 3 | -0.7 | -2.8 | 4.7 | -4
Cc1cccc(OCC(=O)N/N=C2/SCC(=O)N2Cc2ccco2)c1 | 0 | -15 | -0.5 | -1 | 0.5 | -5.1 | . | ?
N#C/C(=C/c1ccc(C(=O)O)cc1)C(=O)Nc1ccccc1 | -4 | -9 | ? | -3 | 0.7 | 1.1 | 4.7 | -24
O=C1NCCCCC1NS(=O)(=O)c1cccc2ccccc12 (stereo not given) | . | -4 | 0.6 | -4 | 0.2 | -0.8 | 0.9 | -9
Cc1nnc(NC(=O)CSc2n[nH]c(-c3ccccc3)n2)s1 | 0 | -6 | 6.8 | -3 | -0.6 | 1.6 | 3.9 | -11
CN(CC(=O)N1CCc2ccccc2C1)c1ccccc1 | -5 | -8 | -0.3 | -2 | 0.4 | -4.8 | 1.8 | -3
CCOC(=O)c1c(C)[nH]c(C(=O)COC(=O)C2(C)CC2(Cl)Cl)c1C (stereo not given) | -3 | 25 | ? | -3 | -2.0 | -1.2 | 4.5 | 4
O=C(NCCCCc1ccccc1)C1CC(c2ccc(C(F)(F)F)cc2)=NO1 (stereo not given) | -2 | -9 | 0.2 | -5 | 0.1 | 6.4 | 1.7 | 4
COc1ccc2oc(=O)cc(-c3cc4ccccc4o3)c2c1 | 6 | 1 | 0.2 | -21 | -0.3 | -6.2 | 1.5 | -15
C/C(CC(=O)Nc1ccc(Cl)c(Cl)c1)=N\NC(=O)C(=O)N1CCCCC1 | -10 | -12 | -4.4 | -16 | 0.0 | -2.6 | . | -4
O=C(CO)N/N=C/c1cccc(Cl)c1Cl | 6 | -8 | -0.7 | 2 | 1.3 | . | . | -3
COc1ccc(N2CC(C(=O)N3CCN(C)CC3)CC2=O)cc1 (stereo not given) | . | -7 | 1.1 | -1 | -0.6 | 0.8 | -1.0 | -25
Cc1ccc(C(=O)NCC(=O)N2CCCN(C)CC2)cc1C | -8 | . | . | -2 | -0.1 | -5.7 | 4.6 | .
COc1ccc(C2=[N+]([O-])C(C)(C)N(O)C2(C)C)cc1 | -5 | -7 | 3.5 | -2 | 0.6 | 1.2 | 1.5 | -8
CC(=O)NC1=C(N(C)C2CCS(=O)(=O)C2)C(=O)c2ccccc2C1=O (stereo not given) | 53 | -3 | -2.8 | -2 | -1.5 | 3.4 | 2.3 | 17
COCCCNS(=O)(=O)c1ccc(S(=O)(=O)N2CCCC2)cc1 | 0 | 10 | -3.5 | 0 | 0.2 | -0.2 | 3.2 | -15
CC1(C)CC(=O)C=C(c2ccc(I)cc2)C1 | -1 | . | . | -5 | 0.4 | -3.7 | -2.1 | .
COc1ccc(C(=O)Nc2ccc(O)c3ccccc23)cc1 | 2 | 9 | ? | 5 | -0.6 | 1.4 | 9.7 | -2
Cc1ccc(C)c(C(=O)OCC(=O)Nc2ccc(N3CCOCC3)cc2)c1 | 1 | -6 | -4.7 | 2 | -0.5 | 3.6 | -1.0 | -11
CC(C)(C)OC(=O)N1CCC(CC2CC(c3ccncc3)=NO2)(C(=O)O)CC1 (stereo not given) | -4 | -22 | ? | 1 | 1.0 | -0.7 | 4.7 | 4
COc1ccc(NC(=O)CN(C)C(=O)CSCc2c(C)noc2C)cc1 | . | -1 | 4.2 | -6 | 1.5 | 1.0 | -0.5 | 6
O=C(c1ccco1)N1CCN(CCCCOc2ccc(F)cc2)CC1 | 0 | -1 | 0.6 | 12 | -2.3 | 1.1 | 1.7 | -10
Oc1ccc(CNc2ccccc2F)c2cccnc12 | 53 | 20 | 0.7 | -2 | -0.9 | -1.8 | -0.6 | -8
S=c1[nH]nc(-c2ccco2)n1-c1ccc(Br)cc1 | -3 | . | -3.0 | -3 | 0.0 | 0.3 | 1.8 | 8
CCc1ccc(NC(=O)C(CC)Sc2nc3ccsc3c(=O)n2CCC(=O)O)cc1 (stereo not given) | 0 | -16 | -1.3 | 2 | 0.2 | 1.5 | 3.7 | -1
C/C(N)=C(/C#N)C(=O)COC(=O)CCCNC(=O)c1ccc(Cl)cc1 | -6 | -6 | 0.9 | 0 | -0.1 | 3.3 | 0.2 | -5
Nc1nc(-c2ccc3c(c2)CCCC3)c(CC(=O)O)s1 | -2 | -3 | -2.2 | -208 | -0.6 | -1.2 | -0.9 | 4
CC(=O)c1cccc(NC(=O)C2CCN(S(=O)(=O)c3ccc(F)cc3)CC2)c1 | 7 | 9 | 0.0 | -6 | -0.1 | 1.5 | 1.9 | 42
O=C(Nc1nc(-c2ccccn2)cs1)c1ccco1 | 32 | 38 | ? | -7 | 0.4 | 5.8 | 1.4 | 17
O=C(NCc1ccc2c(c1)OCO2)c1ccncc1 | -9 | -1 | -1.0 | -4 | 1.5 | -2.3 | 3.7 | -15
COc1cc(C(=O)NC(=S)N(C)Cc2ccccc2)cc(OC)c1OC | 18 | 1 | -1.1 | 2 | -0.2 | 3.0 | -0.7 | -5
The listing continues.
SMILES | Beta apoptosis | T cruzi repl | RanGTP-Impb inh | Beta2AR agonist | Bfl-1 A1 inh | LANA-H2B inh | UCH37 inh | Calb FLC
CCC(Sc1nc(C)cc(=O)[nH]1)C(=O)Nc1nnc(C)s1 (stereo not given) | . | -13 | -0.7 | -2 | 0.4 | 1.4 | 2.9 | -15
COc1cc2[nH]c3c(=O)n(CCN(C(C)C)C(C)C)cnc3c2cc1OC | -1 | 5 | ? | 1 | ? | 0.0 | -64 | -8
CCC1(c2cccc(Cl)c2)NC(=O)N(Cc2cc(C(=O)OC)c(C)o2)C1=O (stereo not given) | -4 | -15 | -2.1 | 2 | -0.4 | -0.6 | 3.0 | ?
Cc1ccc2sc(C)[n+](CCO)c2c1 | -2 | 2 | 1.2 | -3 | -0.6 | -20 | 1.9 | 1
Cc1c(C(=O)N2CCN(C)CC2)oc2ccc(Br)cc12 | . | 11 | -0.1 | -9 | -1.0 | -0.8 | -0.3 | -6
Cc1c(NC(=S)NC(=O)c2ccccc2Cl)c(=O)n(-c2ccccc2)n1C | 10 | -8 | -2.4 | -5 | 0.0 | 4.9 | 6.2 | -5
Cc1noc(/C=C/N(C)C)c1S(=O)(=O)N1CCCC(C(=O)N2CCc3ccccc32)C1 (stereo not given) | 1 | . | . | 23 | 0.3 | 7.6 | 4.7 | .
CCC(=O)Nc1cc(C(=O)O)ccc1S(=O)(=O)c1ccc(C)cc1 | -7 | 0 | -0.8 | 6 | 0.2 | -2.3 | 0.3 | 1
Nc1nc(SCC(=O)N2CCCCC2)[nH]c(=O)c1NC(=O)c1cccs1 | -3 | 6 | 1.3 | 13 | 0.7 | 0.2 | 1.2 | 36
FC(F)Oc1ccc(NC(=S)NN2CCOCC2)cc1 | -2 | 3 | 10 | 2 | -0.8 | 0.3 | 1.6 | -7
Cc1c(Cl)c(C(=O)N2CCCCCC2)nn1C | -3 | -2 | -0.3 | 7 | 0.2 | 1.9 | 3.9 | 5
O=C(CCn1c(=O)oc2ccccc21)Nc1ccc(C(=O)O)cc1 | 3 | -18 | 2.5 | -12 | -0.3 | -1.5 | 3.6 | -20
O=c1[nH]c2ccccc2c(O)c1-[n+]1ccccc1 | 1 | -12 | -0.7 | -6 | -0.5 | 3.9 | 1.9 | 2
CC1(c2ccccc2)CC(C)(C)N(C(=O)C2CCCO2)c2ccccc21 (stereo not given) | -27 | 10 | -2.0 | 5 | -0.2 | -3.5 | 1.5 | -5
CCC(C)(C)n1nnnc1C(c1ccc(OC)c(OC)c1)N1CCN(c2ccccc2)CC1 (stereo not given) | -1 | 6 | 2.6 | -2 | 0.8 | 0.0 | 3.1 | 1
COCCN(Cc1cc2ccc(C)c(C)c2nc1Cl)C(=O)N1CCOCC1 | -1 | 7 | 3.9 | -11 | -1.1 | -4.4 | 0.6 | 6
